Screening data from PubChem.
AmpC inh no det = inhibitors of E. coli AmpC beta-lactamase without detergent | P00811 | AmpC nitrocefin hydrolysis, absorbance 480 nm, no detergent; potencies from a single point are estimates | Potency, µM (top dose mostly 28.7 µM), for inactives: at the top dose activity change, negative = inhibition | 71,000 tested, 1.8% active | AID 585; active = falling curve, for most hits resting on a single point; inconclusive = weak or doubtful change; inactive = flat or rising curve; note: % of control where 0% means no effect; about half of the hits show no inhibition at the top dose; a quarter of the inactives give rising signals
Target sequence (P00811 whole entry, looked up): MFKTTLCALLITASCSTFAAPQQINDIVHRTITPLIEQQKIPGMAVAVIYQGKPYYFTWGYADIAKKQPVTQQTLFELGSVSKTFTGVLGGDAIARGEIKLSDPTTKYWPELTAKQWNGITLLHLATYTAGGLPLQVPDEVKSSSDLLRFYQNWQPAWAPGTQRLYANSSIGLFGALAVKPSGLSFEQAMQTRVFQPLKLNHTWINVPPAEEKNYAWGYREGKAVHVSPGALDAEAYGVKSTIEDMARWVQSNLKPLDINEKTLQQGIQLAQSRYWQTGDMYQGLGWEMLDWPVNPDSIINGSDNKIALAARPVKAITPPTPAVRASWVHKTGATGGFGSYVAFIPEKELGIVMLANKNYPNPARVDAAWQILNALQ
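AmpC in 20 mM phosphate buffer pH 7.0 was preincubated 15 min at room temperature with compounds. Nitrocefin (800 uM stock) was then added and hydrolysis followed at 480 nm every 20 s for 4 min.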
The depositor's hits bear a star; ? = inconclusive; [ ] = dose if it differs, or a comment. Potency is the fitted concentration of half-maximal effect. The list is partial. The share of hits here may be higher or lower than overall.

SMILES | AmpC inh no det
O=C(O)CCn1c(=O)[nH]c2ccccc2c1=O | -8%
O=C(COc1ccccc1)N1CCc2ccccc2C1 | 2%
Clc1ccccc1-c1cncnc1NCCN1CCOCC1 | 22%
COc1ccc(CN(C(=O)CN2C(=O)C(C)Oc3ccccc32)C2CCCC2)c(OC)c1 (stereo not drawn) | 91%
Cc1cc(Cl)c(S(=O)(=O)NCc2cccnc2)cc1OCC(N)=O | 0%
CCCCN(C)CCCNC(=O)CC1Oc2ccccc2NC1=O (stereo not drawn) | 4µM*[single pt active]
Nc1ccc(-c2ccccc2)cc1 | 0%
CCOc1nc(-c2ccccc2)ccc1-c1noc(-c2ccc(OC)c(OC)c2)n1 | 18%
CCOC(=O)Cc1ccc(NS(=O)(=O)c2ccc(SC)cc2)cc1 | -25%
Cc1ccc2cc3cc(C(=O)N4CCC5(CC4)OCCO5)oc3nc2c1 | 61%
O=C(CSc1nc2ccccc2c(=O)n1-c1ccc(Cl)cc1)c1ccco1 | -16%
O=C(c1ccc(COCC(F)(F)F)o1)N1CCCCCC1 | 14%
CCOc1ccc(NC(=O)Cn2nnc(C(=O)NCc3ccccc3OC)c2N)cc1 | -8%
NCCCCN | -8%
Cc1cc(N2CCN(C(=O)c3ccco3)CC2)n2nc(-c3cccc(F)c3)cc2n1 | 169%
CC(=O)[C@@H]1CC[C@@H]2[C@H]3CC[C@H]4C[C@@H](O)CC[C@]4(C)[C@@H]3C(=O)C[C@]21C | 57%
Cc1ccc(-c2noc(CCC(=O)NCCN3CCN(Cc4ccccc4)CC3)n2)cc1 | 108%
O=C(CCCN1CCC(c2ccccc2)C1)c1ccc2c(c1)OCCO2 (stereo not drawn) | 7%
Clc1ccc(C(c2ccc(Cl)cc2)C(Cl)Cl)cc1 | -13%
CCC(C)NC(=O)c1cc(OC)c(OC)c(OC)c1 (stereo not drawn) | -4%
CCc1ccccc1NC(=O)c1cnc2scc(C)n2c1=O | 6%
COc1ccc(CNC(=O)COC(=O)c2c[nH]c(=O)[nH]c2=O)cc1OC | -10%
CCn1cc(C(=O)NCc2ccco2)c(=O)c2cc(S(=O)(=O)N3CCC(C)CC3)ccc21 | 103%
O=C(NCc1ccccn1)C1CCN(S(=O)(=O)c2ccccc2)CC1 | -10%
CC1CCN(CC(O)COc2ccc(F)cc2)CC1 (stereo not drawn) | 6%
CCC1CCCCN1C(=O)CSc1nnc(-c2ccc(Cl)s2)o1 (stereo not drawn) | 31%
Cc1cc(C)nc(N2CCC(C(=O)NCCc3ccc(F)cc3)CC2)n1 | 28%
CC(C)NC(=O)N1CCC2(CC1)CCN(C(=O)c1ccco1)CC2 | 0%
Cc1cc(=O)c2c(O)c(O)ccc2o1 | 11%
COc1ccc(C(CNC(=O)c2ccc3c(c2)C(=O)N(CCC(C)C)C3=O)N2CCOCC2)cc1 (stereo not drawn) | 135%

Five entries picked at random from the list so far:
SMILES | AmpC inh no det
Cc1ccc(-c2noc(CCC(=O)NCCN3CCN(Cc4ccccc4)CC3)n2)cc1 | 108%
COc1ccc(C(CNC(=O)c2ccc3c(c2)C(=O)N(CCC(C)C)C3=O)N2CCOCC2)cc1 (stereo not drawn) | 135%
O=C(CCCN1CCC(c2ccccc2)C1)c1ccc2c(c1)OCCO2 (stereo not drawn) | 7%
CCC(C)NC(=O)c1cc(OC)c(OC)c(OC)c1 (stereo not drawn) | -4%
Cc1cc(C)nc(N2CCC(C(=O)NCCc3ccc(F)cc3)CC2)n1 | 28%

(continued)
SMILES | AmpC inh no det
CN1CCC2(CC1)CCN(C(=O)c1cc(C(F)(F)F)cc(C(F)(F)F)c1)CC2 | 6%
COc1ccc(N(CC(=O)Nc2cc(OC)ccc2OC)S(C)(=O)=O)cc1 | 37%
CCn1cc(C(=O)N2CCOCC2)c(=O)c2cc(S(=O)(=O)N(C)C)ccc21 | ?
O=C(CSc1nc(-c2ccco2)cc(C(F)(F)F)n1)Nc1ccc2c(c1)CCC2 | -11%
COc1cc(OC)cc(C(=O)NCc2nc(-c3ccccc3)no2)c1 | 0%
O=C(Nc1ccccn1)C12CC3CC(C1)CC(C(=O)Nc1ccccn1)(C3)C2 | 13%
Cc1cccnc1NC(=O)CCCN1C(=O)c2ccccc2C1=O | 0%
N/C(=N\O)c1ccc(NC(=O)c2ccc(Br)o2)cc1 | 9%
CCCn1c(=O)c2[nH]c(-c3ccccc3)nc2n(CCC)c1=O | -12%
COC(=O)c1ccc(C(NC(=O)OCc2ccccc2)/C(C)=C/[C@@H](C)C(=O)N(C)Cc2cccnc2)cc1 (stereo partly drawn) | 117%
CCn1c(=O)c2c(nc3n2CC(C)CN3CCc2ccccc2)n(C)c1=O (stereo not drawn) | 110%
Cc1ccc(C)c(-n2c(CNC(=O)c3ccco3)nnc2SCC(=O)N2CCc3ccccc32)c1 | 91%
COc1cccc(NC(=O)CSc2nncn2-c2ccccn2)c1 | -3%
COc1cccc(-c2nc(NCCNC(C)=O)c3ccccc3n2)c1 | 12%
COc1ccc(C)cc1-n1c(SCC(=O)Nc2cc(C)on2)nc2sc(C)c(C)c2c1=O | 36%

In a second layout: results already given
smiles,AmpC inh no det
COC(=O)c1ccc(C(NC(=O)OCc2ccccc2)/C(C)=C/[C@@H](C)C(=O)N(C)Cc2cccnc2)cc1 (stereo partly drawn),117%
CCn1c(=O)c2c(nc3n2CC(C)CN3CCc2ccccc2)n(C)c1=O (stereo not drawn),110%

(further entries)
SMILES | AmpC inh no det
COC(=O)C1CCN(C(=O)c2cc(OC)c(OC)c(OC)c2)CC1 | 5%
Cc1sc2nc(CN3CCCC3)nc(N3CCN(S(=O)(=O)c4cccs4)CC3)c2c1C | 86%
CSc1nc(C)cc(-n2cc(F)c(=O)[nH]c2=O)n1 | 0%
CN(C(=O)c1cnccn1)c1nnc(-c2cnccn2)s1 | -4%
CS(=O)(=O)Nc1cccc(-c2ccc3ncnc(N4CCOCC4)c3c2)c1 | 27%
Nc1nsc2ccccc12 | -9%
COc1ccc(N2CCN(c3oc(COc4ccccc4)nc3C#N)CC2)cc1 | 19%
CCCCNc1nc(SC)nc2nc[nH]c12 | 0%[5.75 µM]
Cc1cc(C)nc(SCc2nc3ccccc3n2C)n1 | 12%
CSC1=C(C#N)C(c2ccc(Cl)cc2)C2=C(CC(C)(C)CC2=O)N1 (stereo not drawn) | -10%
NCCSCCC(=O)O | -3%[5.75 µM]
CCOC(=O)C1=C(N)Oc2cc(C)n(C)c(=O)c2C1c1ccncc1 (stereo not drawn) | 8%
CC(=O)CCS(=O)(=O)c1ccc(C)c(C)c1 | 8%
Cc1cc(=O)[nH]c2c1c(C)nn2-c1ccccc1 | -3%
CCOC(=O)C(C)(C)Oc1ccc(Cl)cc1 | -5%
Cn1c(=O)cc(-c2ccccc2)c2ccccc21 | 15%
O=C(O)CCCCCn1c(SCC(=O)N2CCCC2)nc2ccsc2c1=O | -2%
COc1ccc(-c2cn3c(C)c(C(=O)Nc4cccc(C)n4)sc3n2)cc1 | 96%
CC1(CCc2ccccc2)NC(=O)N(Cc2nnc(-c3ccccc3Br)o2)C1=O (stereo not drawn) | 40%
COC(=O)c1ccc(C)c(NS(=O)(=O)c2ccc(OC)cc2)c1 | -13%
Cn1c(=O)c2c(nc(CN3CCN(C(=O)c4ccco4)CC3)n2CCCc2ccccc2)n(C)c1=O | -9%
CC(=O)Nc1ccc(N/C=C/C(=O)c2ccco2)cc1 | -6%
COc1ccc(C2=NOC(C(=O)Nc3c(C)n(C)n(-c4ccccc4)c3=O)C2)cc1OC (stereo not drawn) | 30%
Cc1cccc(NCc2nc(SCC(N)=O)n[nH]2)c1 | -6%
Cc1ccc(S(=O)(=O)c2c(N)n(CCN3CCOCC3)c3nc4ccccc4nc23)cc1C | 112%
CCCC(c1nnnn1CCC(C)C)N1CCC(C(N)=O)CC1 (stereo not drawn) | 18%
CCC(=O)N1CCc2cc(S(=O)(=O)NCCCOC)ccc21 | -2%
CCOC(=O)c1cccc(NC(=O)CSc2nnc(CNc3ccc(C)cc3)n2CC)c1 | 63%
CN1CCN(CC#CC(C)(O)C2CC3C=CC2C3)CC1 (stereo not drawn) | 8%
O=C(CCCN1C(=O)c2ccccc2C1=O)NCCC1=CCCCC1 | 31%

As a short view, some entries already given.
SMILES | AmpC inh no det
Cn1c(=O)cc(-c2ccccc2)c2ccccc21 | 15%
O=C(O)CCCCCn1c(SCC(=O)N2CCCC2)nc2ccsc2c1=O | -2%
COc1ccc(-c2cn3c(C)c(C(=O)Nc4cccc(C)n4)sc3n2)cc1 | 96%
CC1(CCc2ccccc2)NC(=O)N(Cc2nnc(-c3ccccc3Br)o2)C1=O (stereo not drawn) | 40%
COC(=O)c1ccc(C)c(NS(=O)(=O)c2ccc(OC)cc2)c1 | -13%

More entries follow:
SMILES | AmpC inh no det
CN(c1ccccc1C(=O)O)S(=O)(=O)c1ccc2c3c(cccc13)C(=O)N2 | -5%
COCc1nc2ccccc2n1CCOc1ccccc1OC | 34%
COc1cc(C(=O)NCCC(=O)NCCCN2CCCCC2)cc(OC)c1OC | -7%
O=C(NCCCN1CCC(Cc2ccccc2)CC1)C1CCN(S(=O)(=O)N2CCOCC2)CC1 | 16%
COCCOC(=O)C1=C(C)OC(N)=C(C(=O)OC)C12C(=O)Nc1ccccc12 (stereo not drawn) | 2%
CC(=O)N1CCC2(CC1)C(C#N)=C(N)Oc1n[nH]c(C)c12 | -12%
O=C1CCc2cc(S(=O)(=O)N3CCC(C(=O)NCCC4=CCCCC4)CC3)ccc2N1 | 11%
COc1ccc(-n2c(=O)c(-c3ccccc3)nc3cnc(N4CCN(C)CC4)nc32)cc1 | 130%
Cc1cc(C)c2nc(N3CCN(C)CC3)c(C#N)cc2c1 | 59%
Cc1cccc(C)c1NC1=NCCCCS1 | -13%
Cc1[nH]c2ccccc2c1SCCNC(=O)c1ccc(Br)o1 | -4%
COc1cc2nc(N(C)CCCNC(=O)[C@@H]3CCCO3)nc(N)c2cc1OC | -4%[12.8 µM]
O=c1c2cnn(-c3ccccc3)c2ncn1Cc1ccccn1 | -8%
O=c1c(CCc2ccccc2)nc2cnc(Oc3cccc(Cl)c3)nc2n1C[C@H]1CCCO1 | 9%
CCOC(=O)Cc1csc(NC(=O)C2CCCCC2C(=O)O)n1 (stereo not drawn) | -4%
CN(C)c1ccc(-c2nn3c(C4CCCCC4)nnc3s2)cc1 | 126%
COc1ccc(CC2c3cc(OC)c(OC)cc3CCN2C)cc1OC (stereo not drawn) | 7%
CCOc1ccc(C(=O)NCCC(=O)NCCCC(=O)O)cc1 | 13%
O=C(OCn1nnc2ccccc2c1=O)C1CCN(S(=O)(=O)c2cccs2)CC1 | 21%
N#Cc1cccc(NC(=O)N2CCCC3(CCN(C(=O)c4csnn4)CC3)C2)c1 | 11%
CCN(CC)c1ccc(NC(=O)c2[nH]c(C)c(C(C)=O)c2C)c(C)c1 | 14%
CCOc1ccc(-n2c(SCc3ccc(C(=O)OC)o3)nc3c(c2=O)SCC3)cc1 | 58%
CCOC(=O)N1CCN(S(=O)(=O)c2cccs2)CC1 | 10%
COc1ccc(S(=O)(=O)N2CCCC(C(=O)Nc3ccc(OC)c(OC)c3)C2)cc1 (stereo not drawn) | 70%
COCC(=O)N(Cc1nc2ccccc2c(=O)[nH]1)Cc1cccs1 | 0%
CC(=O)Nc1ccc(NC(=O)c2c(C)nc3ccccn23)cc1 | 6%
Cc1ccnc(NS(=O)(=O)c2ccc(NS(=O)(=O)c3cccs3)cc2)n1 | -24%
COC(=O)c1[nH]c2cccc(OC)c2c1NC(=O)CN1CC2(C)CC1CC(C)(C)C2 (stereo not drawn) | 84%
CC(C)(C)NC(=O)c1ccc2c(c1)N(CC(=O)N1CCN(c3ccccc3F)CC1)C(=O)C(C)(C)O2 | 73%
O=C(CSc1nc2ccccc2[nH]1)c1ccco1 | -20%
COC(=O)Cc1c(C)c2cc(Cl)c(OC(=O)c3ccco3)cc2oc1=O | 35%
NCCN | -4%
CC(=O)c1ccc(NC(=O)CCC(=O)OCC(F)(F)C(F)F)cc1 | 7%
C=CCNC(=O)c1cccc(Br)c1 | -4%
O=C(COc1ccc(S(=O)(=O)N2CCCC2)cc1Cl)Nc1ccc2c(c1)OCO2 | 12%
N=C(N)[C@H](N=Nc1ccccc1)C(N)=O | -7%[5.75 µM]
Cc1cc(NO)nc(-c2ccc(Br)cc2)n1 | -24%
CC(C)(Oc1ccc(Cl)cc1)C(=O)NCCCn1ccnc1 | 14%
CCOc1nc(-c2ccc(OC)cc2)ccc1-c1noc(-c2cc(OC)c(OC)c(OC)c2)n1 | 10%
OCCn1c(CSc2nnc(-c3ccco3)n2-c2ccccc2)nc2ccc(Cl)cc21 | 101%
Cc1cc(S(=O)(=O)NCCN(C)C)c(C)s1 | 18%
COc1cc(Cl)c(S(=O)(=O)N2CCN(Cc3ccc4c(c3)OCO4)CC2)cc1Cl | 20%
Cc1cc(C)c(C)c(S(=O)(=O)Nc2ccc(O)cc2)c1C | -3%
COC(=O)c1cc(OC)c(OC)cc1NC(=O)c1ccccc1 | 21%
CCOC(=O)c1c(OCC)[nH]c2c1cc(O)c1ccccc12 | -16%
Nc1nnc(SCc2ccc(F)cc2)s1 | -5%
COc1cccc(NC(=O)CSc2nnc(C)s2)c1 | -4%
C/C=C/Cn1c(SCc2ccc(C)cc2)nc2c1c(=O)[nH]c(=O)n2C | 18%
Cn1c(=O)c2c(nc(CN3CCN(c4cccc(Cl)c4)CC3)n2CCc2ccccc2)n(C)c1=O | 133%
CC1Cc2ccccc2N1C(=O)COC(=O)Cn1cnc2ccccc2c1=O (stereo not drawn) | 53%
CN(C)c1nc(N)nc(CSc2nnnn2-c2cccc3ccccc23)n1 | 67%
CCOc1ccccc1NC(=O)c1ccccc1-c1nc(-c2ccccc2OC)no1 | 58%
Cc1cc(C(=O)N[C@@H](c2ccccc2)[C@]2(C)C[C@H]2[C@@H](C)C(=O)Nc2ccc3ccccc3c2)n(C)n1 | 105%
CN1CCC(N(C)C(=O)COc2ccccc2-c2ccccc2)CC1 | 28%
CC(C)(C)N1C(=O)c2ccc(C(=O)NCc3ccco3)cc2C1=O | 12%
CC(C)NC[C@@H](O)COc1ccc(CCOCC2CC2)cc1 | 23%
